Screens from PubChem BioAssay.
gsp antag: qHTS for Antagonists of gsp, the Etiologic Mutation Responsible for Fibrous Dysplasia/McCune-Albright Syndrome: qHTS; gsp-mutant cells, cAMP HTRF, 30 min; control for the full effect not named in the record; Potency, µM (top dose mostly 76.9 µM), inactives show at the top dose activity change, negative = inhibition, hits mostly inhibitors; hit rate 0.4% among 340,000; AID 624288, 2012; active = falling curve of any shape with a large fitted effect; inconclusive = falling curve, mostly with a smaller effect; inactive = flat or rising curve; cell line not stated here;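 further: intracellular cAMP measured with PDE inhibitor Ro 20-1724 present during compound exposure; potency means the concentration at half of the fitted maximal effect; on the % scale 0 is the no-effect control and ±100 the full control effect; nearly all actives have a fitted effect of over 65% in size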
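HTRF cAMP measurement after 30 min RT detection following 30 min, 37C compound treatment alongside […] (added as 300 uM solution) in G418-selected cells seeded at 2000/well and grown 16–24 h.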
Menin MLL FP FL: qHTS Assay for Inhibitors Targeting the Menin-MLL Interaction in MLL Related Leukemias: Competition With Fluorescein Labeled MLL-derived Peptide; 290,000 tested, under 10 active; Fluorescence polarization, fluorescein-MLL peptide displacement from menin; FP activity change, % at 61.4 µM; inconclusive = falling polarisation curve, or a change in total fluorescence; inactive = total fluorescence flat and polarisation flat or rising; no compound was filed as active; the % refers to the polarisation; negative = inhibition;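 further: % of control where 0% means no effect; inhibitors lower the polarisation; unlabelled MLL peptide was the positive control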
ClpP mod: qHTS Assay for Activators of ClpP; purified B. subtilis ClpP, FRET peptide cleavage, 20 min; Potency, µM (doses to about 57.5 µM), without a hit: at the top dose activity change, negative = active; hit rate 1.9% among 340,000; active = well fitted falling curve with a large enough effect; inconclusive = small, poorly fitted or top-dose-only effect; inactive = no such curve, though single readings can be large or run the other way; further: potency means the concentration at half of the fitted maximal effect; the source files actives as falling curves though it sought activators and does not explain the sign; nearly all actives have a fitted effect of over 65% in size; many hits overshoot -100%
Target sequence (P80244 whole entry, looked up): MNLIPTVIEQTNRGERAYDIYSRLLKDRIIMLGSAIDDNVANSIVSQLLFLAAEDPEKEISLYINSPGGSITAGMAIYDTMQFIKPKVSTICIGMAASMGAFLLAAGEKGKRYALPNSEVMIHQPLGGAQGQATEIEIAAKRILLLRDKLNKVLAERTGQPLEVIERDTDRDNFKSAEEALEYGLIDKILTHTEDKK
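Buffer: 100 mM Tris/HCl pH8, 100 mM KCl, 0.05% low protease BSA, 2.5% glycerol, 0.01% Tween-20. ClpP 10 microg/mL final; 20 min RT; delta FRET normalized to ADEP and DMSO controls.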
TRPML1 blocker: qHTS for Inhibitors of the Human Mucolipin Transient Receptor Potential 1 (TRPML1). Mucolipin-1 (Homo sapiens), Q9GZU1. TRPML1-inducible cells, Ca2+ dye fluorescence, FDSS; active compounds read low; inhibition of EC80 agonist-evoked calcium signal. activity change, negative = inhibition, % (concentration not given with the values). hit rate 0.02% among 390,000. AID 624415, 2012; in the data active means activity change below about -50%; inconclusive means about -30% to -50%; inactive means above about -30%;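 further: stimulus is agonist 54-4 at its EC80 concentration; on the % scale 0 is the no-effect control and ±100 the full control effect; the text of the record puts the active cut at -80%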
Target sequence (Q9GZU1 whole entry, looked up): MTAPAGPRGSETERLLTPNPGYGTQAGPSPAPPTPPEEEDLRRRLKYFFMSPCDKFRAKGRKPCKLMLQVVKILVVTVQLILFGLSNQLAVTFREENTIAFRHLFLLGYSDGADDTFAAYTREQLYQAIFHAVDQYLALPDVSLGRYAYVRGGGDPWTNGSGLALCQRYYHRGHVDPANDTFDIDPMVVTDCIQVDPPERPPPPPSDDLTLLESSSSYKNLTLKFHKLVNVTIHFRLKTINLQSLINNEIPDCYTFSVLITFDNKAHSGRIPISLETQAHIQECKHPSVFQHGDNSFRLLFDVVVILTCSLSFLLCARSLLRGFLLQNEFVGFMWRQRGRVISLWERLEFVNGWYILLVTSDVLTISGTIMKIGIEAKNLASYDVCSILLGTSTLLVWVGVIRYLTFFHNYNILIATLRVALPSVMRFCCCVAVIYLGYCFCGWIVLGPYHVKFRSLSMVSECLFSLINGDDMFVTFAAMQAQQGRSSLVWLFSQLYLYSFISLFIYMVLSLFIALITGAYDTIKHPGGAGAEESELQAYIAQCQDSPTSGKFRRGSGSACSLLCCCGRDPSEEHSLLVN
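Calcium fluorescence in TRPML1-DL cells induced overnight with Tet: a 110 s read after compound pin addition, then a 110 s antagonist read after challenge with 54-4 at 4 uM final (EC80).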
gsp agonist: qHTS for Agonist of gsp, the Etiologic Mutation Responsible for Fibrous Dysplasia/McCune-Albright Syndrome: qHTS; gsp mutant cells, cAMP HTRF, 30 min; control for the full effect not named in the record; Potency, µM (series often up to 76.9 µM), without a hit: at the highest dose activation (cAMP increase), actives largely listed as activators; hit rate 0.13% among 340,000; AID 624287, 2012; active = well fitted activation curve with a large enough effect; inconclusive = small, poorly fitted or top-dose-only effect, or another doubt; inactive = no such curve, though single readings can be large or run the other way; cell line not stated here;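 further: phosphodiesterase inhibitor Ro 20-1724 added with compounds to block cAMP breakdown; potency means the concentration at half of the fitted maximal effect; nearly all actives have a fitted effect of over 60% in size; about a fifth of the inactives were tested at one dose only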
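Cells stably selected in G418 were plated at 2000/well, grown 16-24 hr, then given compounds in DMSO with the PDE inhibitor […] (300 uM solution added) for 30 min at 37C; cAMP was read by HTRF.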
TRPML1 ag: qHTS for Agonists of the Human Mucolipin Transient Receptor Potential 1 (TRPML1); AID 624414, 2012; TRPML1-expressing cells, Ca2+ dye fluorescence, FDSS; host cell line not named in the record; reference of the full effect not given here; Mucolipin-1 (Homo sapiens), Q9GZU1; hit rate 0.12% among 410,000; activation, % (test concentration not listed); in the data active = activation above about 50%; inconclusive = about 30% to 50%; inactive = below about 30%; further: 0% is about no effect; the text of the record puts the active cut at 80%
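In this qHTS format, compounds were pin-transferred onto Ca8-dye-loaded TRPML1-DL cells induced with Tet overnight, and intracellular Ca2+ fluorescence was recorded kinetically for 110 s after a 10 s baseline. A subsequent 4uM final 54-4 (EC80) addition followed by a second 110 s read served as the antagonist phase.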
* hit, by the source's call; ? = inconclusive; · = not tested or not shown; [ ] = dose if it differs, or a comment.

Structure,gsp antag,Menin MLL FP FL,ClpP mod,TRPML1 blocker,gsp agonist,TRPML1 ag
Cc1nn(-c2ncc(C(F)(F)F)cc2Cl)c(=O)n1-c1c(F)cccc1F,12.3%,-2.4,-2.0%,6.5,-15.6%,0.4
COc1cc(C(=O)Nc2ccc(NC(=O)c3ccccc3)nc2)cc(OC)c1OC,-5.1%,-4.9,·,3.9,21.2%,0.2
O=C(NCCN1CCOCC1)c1cc(-c2cccc(O)c2)on1,-1.4%,3.4,·,0.6,-9.1%[15.4 µM],0.2
COCCCn1c(SCC(=O)N2CCCCC2C)nnc1-c1ccco1 (configuration not stated),-3.1%,1.7,-1.8%,3.2,-47.6%[inhibitor],1.3
CCOC(=O)N1CCN(C(=S)Nc2cc(S(=O)(=O)N3CCOCC3)ccc2Cl)CC1,?,0.8,·,-9.6,11.9%,-0.3
CCC(=O)N1CCc2cc(S(=O)(=O)N3CCN(c4ccccc4F)CC3)ccc21,·,·,-1.8%,5.8,·,-0.6
COc1cccc(CN2C(=O)c3ccccc3Sc3ccc(C(=O)N(C)Cc4ccccc4)cc32)c1,·,·,0.0%,17.7,·,0.3
COc1ccc(-c2csc(NC(=O)c3ccc(S(=O)(=O)N4CCc5ccccc5C4)cc3)n2)c(OC)c1,6.8%,4.6,-6.4%,-21.6,8.6%,-0.4
CN(CC(=O)Nc1ccc(Cl)c(C(F)(F)F)c1)C(=O)C1CSC2(C)CCC(=O)N12 (configuration not stated),-11.9%,·,-1.4%,27.2,2.8%,0.0
O=C(O)CNC(=O)C1(NC(=O)OCc2ccccc2)CCCC1,-4.2%,·,0.8%,0.9,2.3%[15.4 µM],-0.5
O=C(COc1ccc(Cl)cc1)NNC(=O)C(=O)N1CCCCC1,7.1%,-1.4,-1.3%,-3.4,0.0%,0.3
Cc1cc(C)c(NC(=O)Cn2c(=O)oc3cc(S(=O)(=O)N4CCCCCC4)ccc32)c(C)c1,·,·,0.8%,-6.3,·,0.9
CCOc1ccc(C2C(C(=O)c3cccs3)=C(O)C(=O)N2Cc2cccnc2)cc1 (configuration not stated),9.3%,0.1,?,0.4,-8.5%[15.4 µM],0.6
O=c1c2c(nc3n1CCCCC3)-c1ccccc1CC21CCCCC1,5.5%,0.4,0.7%,-1.9,3.7%,-0.4
CCc1cc2c(=O)n(-c3ccccc3)c(SCC(=O)O)nc2s1,-7.3%,-3.1,0.7%,4.4,18.9%[15.4 µM],-0.1
COc1ccc(C)cc1NC(=O)c1ccc2c(c1)N(Cc1cccc(Cl)c1)C(=O)c1ccccc1S2=O (configuration not stated),·,·,0.6%,-10.9,·,0.5
Cc1ccc(OCC(=O)Nc2cc(C)on2)c([N+](=O)[O-])n1,15.5%,0.4,1.0%,-3.2,-0.4%[15.4 µM],0.3
CCN(CC)S(=O)(=O)c1ccc(N2CCOCC2)c(NC(=O)c2cccc(C#N)c2)c1,20.0%,-4.3,·,4.5,?,-0.6
COc1ccc(-c2cn(CCC(=O)O)c(C)n2)cc1,7.8%,·,-2.6%,6.9,·,-0.7
Cc1cc(N2CCN(c3ccc([N+](=O)[O-])c4cccnc34)CC2)c2ccccc2n1,5.9%,-2.2,-1.6%,-5.1,-11.2%[15.4 µM],-1.7

Single entries from the entries so far:
CCc1cc2c(=O)n(-c3ccccc3)c(SCC(=O)O)nc2s1 in TRPML1 ag is entered as -0.1
O=C(COc1ccc(Cl)cc1)NNC(=O)C(=O)N1CCCCC1 in TRPML1 blocker is entered as -3.4

(list continues)
Structure,gsp antag,Menin MLL FP FL,ClpP mod,TRPML1 blocker,gsp agonist,TRPML1 ag
CC(=O)Nc1c(O)nc(SCC(=O)Nc2ccc(C(C)=O)cc2)[nH]c1=O,6.0%,2.8,-2.5%,3.9,-1.3%,4.2
COc1cccc(NC(=O)CN(C)C(=O)c2cc(S(=O)(=O)NCc3ccccc3)ccc2C)c1,-16.3%,3.9,-1.8%,5.3,-6.6%,1.1
CC(=O)Nc1ccc(NC(=O)COc2ncnc3ccccc23)cc1,4.1%,-1.0,0.3%,8.0,?,0.7
Cn1c2c(c(=O)n(C)c1=O)[C@@H]1c3c(ccc4ccccc34)OC[C@@H]1CO2,5.3%,3.7,-3.1%,16.0,4.2%,1.8
COc1ccccc1NCC(=O)N/N=C/c1cccnc1,-11.2%,4.1,0.7%,-6.1,-38.1%[inhibitor],-0.8
NC(=O)CSc1nc2cc3c(cc2c(=O)n1CCCC(=O)NCc1ccc2c(c1)OCO2)OCO3,-2.2%,4.1,-1.2%,-0.2,4.0%,0.0
COc1ccc(NC(=O)COC(=O)/C=C/c2ccc(OC)c(S(=O)(=O)N3CCOCC3)c2)cc1,-1.9%,7.1,-9.4%,-0.1,-43.8%[15.4 µM],0.8
CC(C)(C)NC(=O)c1cc(F)c(F)cc1Cl,11.0%,5.9,0.8%,21.7,-1.5%,-0.5
C/C(=N\Nc1cccc(C(F)(F)F)c1)c1ccc(O)cc1,-19.3%,2.9,·,8.0,22.5%[15.4 µM],-0.4
CC1Oc2ccccc2N(CC(=O)N2CCCc3ccccc32)C1=O (configuration not stated),-14.7%,-2.3,0.4%,8.5,0.2%,-0.8
Cc1ccc(C(=O)N/N=C/c2ccc(OC(=O)c3ccccc3Cl)cc2)cn1,9.5%,·,-7.9%,23.7,4.3%[15.4 µM],-1.2
Cc1ccc(/C=C/c2nc3ccccc3[nH]2)cc1,·,·,4.6%,-2.2,·,1.8
CCN(CC)CCn1c2ccccc2c2cnc(N=CN(C)C)c(C#N)c21,-3.2%,2.5,?,19.6,?,0.1
O=C(CNC(=O)c1cccs1)OCC(=O)c1ccc([N+](=O)[O-])cc1,5.4%,7.0,·,-13.7,-9.4%[15.4 µM],-0.8
C/C=C/C(=O)OCC(=O)Nc1cc(-c2cc(C)c(C)cc2C)nn1-c1ccccc1,-13.0%,9.7,-1.5%,-3.1,36.5%,1.2
O=C(CCNS(=O)(=O)c1cccc2nonc12)NCc1cccs1,-7.5%,-1.3,-1.0%,7.3,-8.8%,0.1
Cc1ccc(S(=O)(=O)N2CCN(C(=O)COC(=O)CCCOc3ccccc3)CC2)c(C)c1,-3.0%,·,1.2%,0.6,19.2%,-0.8
C=CCn1c(N2CCCCCC2)nc2c1c(=O)[nH]c(=O)n2C,7.2%,-1.1,0.2%,0.9,-22.5%,-0.1
CN1CCN(NC(=O)c2cn(-c3ccccc3)nc2-c2cccc(Br)c2)CC1,14.7%,-0.6,·,2.3,-19.8%[15.4 µM],-0.2
COc1ccccc1N1CCN(C(=O)C2CCCN(c3ncnc4c3nc3n4CCCCC3)C2)CC1 (configuration not stated),-7.3%,·,-0.5%,0.0,-51.0%[inhibitor],0.5

Complete entries from above. Order of screens: gsp antag	Menin MLL FP FL	ClpP mod	TRPML1 blocker	gsp agonist	TRPML1 ag
Listed for CC(=O)Nc1ccc(NC(=O)COc2ncnc3ccccc23)cc1 : 4.1%	-1.0	0.3%	8.0	?	0.7
Listed for Cc1cc(N2CCN(c3ccc([N+](=O)[O-])c4cccnc34)CC2)c2ccccc2n1 : 5.9%	-2.2	-1.6%	-5.1	-11.2%[15.4 µM]	-1.7

Later entries
Structure,gsp antag,Menin MLL FP FL,ClpP mod,TRPML1 blocker,gsp agonist,TRPML1 ag
Cc1oc(-c2ccc(Cl)cc2)cc1C(=O)/C(C#N)=C/Nc1ccccc1,-17.7%,-0.1,·,43.2,?,1.4
CCCCC(c1nnnn1C1CCCC1)N1CCN(C2CCCCC2)CC1 (configuration not stated),5.4%[15.4 µM],-9.0,-3.3%,24.2,-8.3%,0.1
Cc1cc(=O)c(C(=O)O)cn1Nc1ccc(F)cc1,0.0%,4.1,0.3%,-6.9,-1.7%,0.2
NC(N)=N/N=C/c1ccc(Cl)c(Cl)c1,-4.1%,-0.9,·,9.4,20.5%[15.4 µM],0.7
O=c1c(O)c(-c2ccc(O)cc2O)oc2cc(O)cc(O)c12,·,?,-1.0%,·,·,0.8
CCOc1ccc(-n2c(C)c3c(C)nnc(C)c3c2C)cc1,·,·,-12.1%,-8.1,-4.0%,-0.3
CN1C(=O)C(=O)/C(=C(/O)c2ccc(Br)cc2)C1c1ccc(F)cc1 (configuration not stated),?,0.6,1.6%,15.3,?,0.1
Cc1cccn2c(=O)c3cc(C#N)c(=NC(=O)c4cccs4)n(CC(C)C)c3nc12,-7.0%,0.4,·,29.3,4.1%,1.3
CCCCC(=O)OCc1cc(=O)n2nc(C3CC3)sc2n1,·,·,-5.4%,-10.0,·,-0.5
Cc1ccc(-c2nc(CS(=O)(=O)CC(=O)N3CCN(c4cccc(C)c4C)CC3)c(C)o2)cc1,·,·,-3.3%,8.2,·,0.4
COc1cccc(NC(=O)[C@@H](NC(=O)N2CCn3c2nc2ccccc23)C(C)C)c1,-12.8%,·,·,11.2,?,0.2
O=C(Nc1cccnc1)c1sc(Nc2ccccc2F)nc1-c1ccccc1,-7.4%,-0.5,17.8µM*,6.5,8.7%,2.0
CC(C)c1ccc(N(CC(=O)NCCc2ccccc2)C(=O)c2csnn2)cc1,-3.5%,-0.1,·,6.6,0.0%,0.1
CC1=CC(C)(C)NC(=S)N1c1cc(C)cc(C)c1,1.8%,-4.9,·,-16.6,-8.0%[15.4 µM],2.8
CN(C)CCCNc1cc(C(C)(C)C)nc2c(-c3ccc(Cl)cc3)cnn12,11.6%,2.0,·,-5.9,-4.0%[15.4 µM],0.7
COc1cccc(C(=O)NC(=S)Nc2ccc3[nH]c(=O)[nH]c3c2)c1,10.1%,2.5,-0.2%,-9.7,6.0%[15.4 µM],-1.7
Cc1sc2ncn(CC(=O)NCCCC(=O)N3CCN(c4ccccc4F)CC3)c(=O)c2c1C,-3.2%,-8.2,·,12.0,11.3%[15.4 µM],-0.4
O=C(/C=C/c1ccco1)N1CCc2ccccc21,-3.1%,12.2,·,10.2,-27.4%,1.6
